Assay outcomes: PubChem, several laboratories
LANA-H2A inh – blocks KSHV LANA binding to histone H2A/H2B; Q9QR71; cell-free LANA-H2A/H2B peptide, fluorescence polarization; inhibition, % (concentration not given with the values); 320,000 compounds, 0.6% hits; in the data active = inhibition mostly above about 10%, no sharp cut-off; inactive = mostly below about 6.7%;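 also: stock transfer was 7.5 nL into about 10 µL; 0% = median of vehicle wells and 100% = median of positive control wells; one replicate is shown; the record names a cut of 25% in any replicate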
Target sequence (Q9QR71 whole entry, looked up): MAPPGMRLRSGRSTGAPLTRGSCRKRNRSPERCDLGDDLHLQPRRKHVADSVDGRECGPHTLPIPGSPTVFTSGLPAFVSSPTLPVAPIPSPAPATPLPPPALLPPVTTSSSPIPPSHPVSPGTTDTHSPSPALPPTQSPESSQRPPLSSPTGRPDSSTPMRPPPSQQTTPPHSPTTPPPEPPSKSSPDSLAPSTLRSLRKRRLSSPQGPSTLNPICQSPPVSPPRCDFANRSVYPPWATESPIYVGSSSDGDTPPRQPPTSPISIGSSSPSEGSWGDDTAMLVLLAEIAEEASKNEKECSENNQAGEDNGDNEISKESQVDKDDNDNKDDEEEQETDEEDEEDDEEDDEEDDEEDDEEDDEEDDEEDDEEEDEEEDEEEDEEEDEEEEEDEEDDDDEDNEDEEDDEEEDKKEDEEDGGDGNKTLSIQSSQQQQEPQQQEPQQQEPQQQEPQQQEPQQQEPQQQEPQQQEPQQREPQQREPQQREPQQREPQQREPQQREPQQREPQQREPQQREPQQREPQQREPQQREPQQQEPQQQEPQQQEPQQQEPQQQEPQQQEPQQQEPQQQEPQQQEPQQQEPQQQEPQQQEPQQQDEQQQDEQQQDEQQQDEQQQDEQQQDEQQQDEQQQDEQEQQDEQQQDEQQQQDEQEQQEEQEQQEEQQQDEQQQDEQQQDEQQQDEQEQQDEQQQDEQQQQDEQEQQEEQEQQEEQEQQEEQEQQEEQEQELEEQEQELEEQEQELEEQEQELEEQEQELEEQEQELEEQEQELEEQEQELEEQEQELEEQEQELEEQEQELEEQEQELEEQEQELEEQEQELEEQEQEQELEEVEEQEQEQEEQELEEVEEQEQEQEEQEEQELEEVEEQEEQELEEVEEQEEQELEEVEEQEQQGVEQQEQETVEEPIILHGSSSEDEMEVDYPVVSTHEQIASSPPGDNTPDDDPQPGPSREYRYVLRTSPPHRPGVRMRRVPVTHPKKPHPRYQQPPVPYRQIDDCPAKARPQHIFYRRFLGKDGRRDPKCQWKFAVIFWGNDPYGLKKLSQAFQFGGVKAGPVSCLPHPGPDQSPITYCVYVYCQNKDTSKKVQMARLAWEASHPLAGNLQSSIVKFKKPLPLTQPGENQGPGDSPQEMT
RanGTP-Imp inh – inhibitors of RanGTP-importin-beta interaction, primary screen, biochemical, FRET, CFP-Ran, YFP-importin-beta, homogeneous. cell-free CFP-Ran/YFP-importin-beta FRET ratio. inhibition, % (test concentration not listed). 300,000 compounds, 1.1% hits;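 active = most replicates above 15%; inconclusive = exactly half above 15%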;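 also: 0% = DMSO wells and 100% = Ran loaded with GDP instead of GTP; wells of about 40 µL received 100 nL stock; the first replicate is given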
B2AR ag – human beta-2 adrenergic receptor agonism by FAP. P07550. Am2.2-beta2AR cells, FAP receptor internalization, flow cytometry; reference of the scale not given here. response, % (no concentration beside the values). 340,000 compounds, 0.43% hits. AID 504454;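 active = response above a set limit, near 3 SD of response in nonfluorescent compounds, cut at about 42% in these data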;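 also: stock transfer was 100 nL into about 11 µL; a reference agonist was the positive control; negative values mostly stem from fluorescent compounds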
T cruzi repl – blocks replication of Trypanosoma cruzi | T. cruzi beta-gal in NIH3T3, luminescence, 90 h | inhibition, % (test concentration not listed) | 300,000 compounds, 1.4% hits | AID 1885;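 active = mean inhibition across valid replicates above about 55%, limit read from the data; inconclusive = mean below that limit but half or more replicates reach it; inactive = mean below it, under half of replicates reach it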;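 also: signal also drops with host cell toxicity which is not excluded here; 0% = plate median of DMSO wells and 100% = zero luminescence signal; higher percent means less beta-gal luminescence so fewer parasites; stock transfer was 50 nL into about 50 µL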
Beta cell apopt – beta cell apoptosis inhibition; INS-1E cytokine-induced death, ATP luminescence, 48 h; percent of positive-control rescue, neutral wells zero; protection from apoptosis, % (test concentration not listed); 300,000 compounds, 0.8% hits; AID 435005;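 active = all replicates at 75% or more, or half of them and the mean; inconclusive = half reach 75% but not the mean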;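 also: 0% = cytokine-treated negative control wells and 100% = positive control rescue; higher means more ATP so stronger rescue from cytokine killing; wells of about 40 µL received 100 nL stock; the first replicate is given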
Bfl-1 A1 inh – inhibitors of the anti-apoptotic protein A1, read as caspase activation; MEF A1-2A-BIM cells, Caspase-Glo 3/7 luminescence, 3 h; percent of clofoctol response, vehicle zero; caspase activation, % (concentration not given with the values); 330,000 compounds, 0.066% hits; AID 2462;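 active = over half of replicate activation scores above 10%, or exactly half above 10 with the replicate mean above 10; inconclusive = replicate mean below 10 yet half the replicates above 10; inactive = over half of replicates below 10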;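 also: wells of about 30 µL received 50 nL stock; many hits fall short of the cut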
Calb FLC – C. albicans growth modulation with fluconazole; 300,000 compounds, 0.57% hits; growth inhibition, % (test concentration not listed); C. albicans CaCi-2 (fluconazole-resistant clinical isolate) + fluconazole, Alamar Blue growth, 48 h;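 active = most replicates above 75%; inconclusive = exactly half above 75%; inactive = most below 75%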;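 also: all wells also contain fluconazole at 8 µg/ml as a sub-toxic cotreatment; 0% = median of DMSO wells and 100% = median of geldanamycin control wells; wells of about 8 µL received 7.5 nL stock; the first replicate is given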
UCH37 DUB inh – blocks the human deubiquitinase UCH37. Q9Y5K5. purified proteasome/UCH37, Ub-AMC cleavage fluorescence. inhibition, % (concentration not given with the values). 330,000 compounds, 0.33% hits;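 active = mean of two replicates above 20%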;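 also: 0% = compound-free wells with enzyme and 100% = wells lacking proteasome; stock transfer was 100 nL into about 20 µL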
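Signal – fluorescence, ex 355 nm, em 460 nm · System – Proteasome-bound UCH37 · Input – 0.15 nM proteasome as dispensed · Timing – 30 min preincubation with enzyme, 25 min cleavage at room temperature · Read-out basis – percent inhibition of cleavage signal versus uninhibited and no-proteasome wells · Medium – Tris-HCl pH 7.4 with ATP-MgCl2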
Starred values were filed as active, the others as inactive; ? = inconclusive; · = no result given.

molecule,Beta cell apopt,RanGTP-Imp inh,UCH37 DUB inh,T cruzi repl,Calb FLC,LANA-H2A inh,B2AR ag,Bfl-1 A1 inh
Cc1ccnc(NS(=O)(=O)c2cc(-c3cc(C)no3)ccc2C(C)C)c1,-13,5.5,-7.0,-7,7,-0.8,-2,1.7
Fc1ccccc1CNCc1ccc2c(c1)OCO2,1,1.0,4.7,-3,-8,0.7,-4,0.3
COc1cc(C(c2sc3nc(C)nn3c2O)N2CC(C)CC(C)C2)cc(OC)c1OC (stereo not given),-7,2.1,3.9,-12,2,5.5,4,-0.1
COc1cc2nc(CN3CCOCC3)n(CC(=O)N3CCCCCC3)c(=O)c2cc1OC,3,?,0.3,23,-3,8.5,-10,2.1
CCCSc1ccc([C@H]2N[C@@](Cc3ccccc3)(C(=O)OC)[C@H]3C(=O)N(C)C(=O)[C@@H]23)cc1,-5,·,2.8,·,·,-2.3,-4,0.5
Cn1ccnc1Sc1nc2c(c(=O)n(C)c(=O)n2C)n1C,-2,5.3,3.2,-19,-1,-1.3,1,-0.1
CCC(=O)N1CCc2cc(S(=O)(=O)NC(C(=O)NC(C)c3ccccc3)C(C)C)ccc21 (stereo not given),1,-0.5,2.5,-7,-7,-6.6,-3,-0.5
O=C(CCN1C(=O)c2ccccc2C1=O)Nc1nc2ccccc2s1,0,-1.4,4.7,1,-22,0.7,-18,0.1
Cc1nnc(SCc2ccc(C(=O)O)cc2)s1,2,1.9,1.2,-6,18,-1.7,4,0.1
Cc1ccc(-n2nnnc2SCc2nnc(-c3ccccc3Br)o2)cc1,-4,-3.6,0.7,3,-8,-1.2,-5,-0.1
O=C(Cc1csc(-c2ccccc2)n1)NCc1ccc(F)cc1,-1,2.2,2.6,-2,5,3.1,1,0.4
O=C(NC1CCCCC1)C(c1ccc(F)cc1)N(C(=O)c1csnn1)C1CC1 (stereo not given),-1,1.4,3.3,-2,20,-4.1,4,-0.2
COc1cc(/C=N/c2oc(C)c(C)c2C#N)cc(Br)c1O,1,-3.2,·,-4,-3,0.1,10,0.8
Cc1c(Cl)c([N+](=O)[O-])nn1CC(=O)NC1CCCCC1,-5,-2.7,4.2,2,6,4.2,-1,0.4
Cc1ccc(/C=N/NC(=O)CNC(=O)COc2ccc(Cl)cc2)o1,5,-1.5,·,-14,-1,-0.8,2,-0.1
COc1cccc(C(C(=O)NC2CCCC2)N(C(=O)c2ccco2)c2ccc(-n3cnnn3)c(C)c2)c1OC (stereo not given),0,0.5,0.3,9,92*,3.2,-1,0.4
COc1cccc(CN(CC(=O)NC2CCCC2)C(=O)Cn2nnc(-c3cccs3)n2)c1,·,0.0,0.9,4,9,2.3,-7,-1.6
COc1ccc(NC(=O)Cn2ncc(Cl)c(Cl)c2=O)cc1S(=O)(=O)N1CCOCC1,-15,4.8,4.6,-31,6,-2.0,17,0.4
Cc1ccccc1NS(=O)(=O)c1ccc(C(=O)OCC(=O)NCC(C)C)cc1,-2,2.0,4.2,-8,33,1.7,1,-1.1
Fc1cccc(Cn2cc(C(=S)N3CCOCC3)c3ccccc32)c1,-1,-1.3,3.8,18,-4,6.5,1,1.2
COc1ccc(S(=O)(=O)NCCSCc2ccco2)cc1,-6,4.3,1.5,4,6,-3.4,2,-0.3
CCCCCCSc1ccc(-c2nc3ccc(C)cn3c2NC2CCCCC2)cc1,10,1.2,-357,33,11,3.6,7,0.4
COC(=O)c1cc(OC)c(OC)cc1NC(=O)c1ccc(C)o1,7,-2.6,-8.9,1,14,4.9,-4,0.3
Cc1oc2cc(O)ccc2c(=O)c1Oc1ccc2ccccc2c1,-6,2.5,-189,-3,30,3.5,-4,1.1
Cc1cc(OCC(=O)NCCCn2ccnc2)c2c(C)cc(=O)oc2c1,-7,3.1,-86,-4,-3,1.0,-5,-0.1
CC1=C(C(=O)NCc2ccccc2)C(c2ccccc2OCC(N)=O)NC(=O)N1 (stereo not given),·,1.2,-0.1,-4,13,-1.1,-1,0.8
Cn1c(SC2C(=O)CC(C)(C)CC2=O)nnc1-c1ccco1,-4,-3.1,-1.3,-17,-3,2.5,-5,-1.7
O=C(c1cccc(S(=O)(=O)N2CCOCC2)c1)N(CCO)Cc1ccccc1,-1,6.3,1.5,-13,-1,1.5,5,1.1
CC(=NCc1ccco1)c1c(C(F)(F)F)[nH]n(-c2nc3ccccc3s2)c1=O,·,2.9,3.0,14,-23,0.6,5,-7.2
CCn1c(SCC(=O)Nc2ncc(C(F)(F)F)cc2Cl)nnc1-c1ccccc1,-4,-1.5,4.3,1,?,8.6,-8,0.4
COc1ccccc1Nc1ncnc2ccccc12,-2,-0.8,-0.7,4,-7,-4.2,1,0.4
COC(=O)CCCNc1ncccc1[N+](=O)[O-],1,-0.3,1.5,-16,-1,-0.7,-7,-0.5
CCc1nn(CC(=O)NCCCN(CC)CC)c(=O)c2cc3sc(C)cc3n12,2,5.1,3.4,-3,6,3.6,-20,0.2
CCN(C(=O)CN1CCN(c2cccc(C(F)(F)F)c2)CC1)c1c(N)n(Cc2ccccc2)c(=O)[nH]c1=O,4,0.4,0.0,4,6,0.0,5,0.1
Cc1ccc(C(NC(=O)/C=C\c2ccc3c(c2)OCO3)C(=O)Nc2ccc3c(c2)OCO3)cc1 (stereo not given),-1,1.1,·,?,0,-1.5,2,0.4
Cc1ccc2c(c1)c(C)c(C)n2CC(O)CN1CCCCC1C (stereo not given),-1,2.1,9.5,4,-10,4.6,16,0.0
O=C(N/N=C/c1cccc(OCC(=O)N2CCCC2)c1)C(=O)Nc1ccccc1F,1,2.6,·,-9,0,-3.1,0,1.0
Nn1c(SCc2ccccc2F)nnc1-c1ccncc1,-8,2.8,2.4,-8,-10,-0.3,-4,0.0
Cc1c(S(=O)(=O)NC2CCCCCC2)c(=O)n(C)c(=O)n1C,·,6.5,1.5,-16,-3,-4.2,-4,0.3
NS(=O)(=O)c1ccc(CCNC(=O)[C@@H]2CCCN2S(=O)(=O)c2ccccc2F)cc1,1,2.5,2.9,-7,5,3.9,-3,0.6
O=C(NCCc1cccnc1)c1cc(COc2ccc(F)cc2Cl)on1,14,-0.2,·,-1,14,-8.3,-8,0.4
CC(C)N(C(=O)CO/N=C/c1cccc([N+](=O)[O-])c1)C(C)C,-3,·,·,-11,-9,-0.9,-8,0.5
O=C(Nc1nccs1)C1CCN(S(=O)(=O)c2cnc[nH]2)CC1,-2,2.3,0.1,6,-1,-2.3,4,0.2
COc1ccc(/C=C(/NC(=O)c2ccco2)C(=O)Nc2ccc(C(=O)O)cc2)cc1,0,?,9.3,-1,1,-0.2,-5,0.0
COc1ccc(/C=C(\NC(=O)c2ccccc2)C(=O)NCCN2CCOCC2)cc1,-5,5.4,4.3,-7,5,-2.0,3,-0.3
Cc1cc(F)ccc1NCc1ccccc1[N+](=O)[O-],-5,1.9,-3.0,-6,32,-3.6,-1,-0.3
COC(=O)[C@H](Cc1ccccc1)NC(=O)NCCC1=CCCCC1,·,3.8,-0.8,-13,2,·,7,·
COc1cc2c(cc1OC)C1(CCCCC1)CN(C)C2,-1,?,-15,7,5,-5.4,1,0.6
CCOC(=O)c1c(-c2ccccc2)csc1NC(=O)c1cccc(N2C(=O)CCC2=O)c1,2,-1.3,-328,-8,6,-2.9,10,-0.5
CC(=O)NC1=NC(=O)C(C)S1 (stereo not given),-2,4.2,1.4,6,-20,-2.6,2,-0.4
Cc1cc(N(CC(=O)NC2CC2)S(C)(=O)=O)ccc1Br,·,0.0,2.4,-2,2,2.7,1,0.9
CCN(CC)CCN1CCn2c3c(c4cc(C)ccc42)CCCC31 (stereo not given),14,-0.9,2.2,43,-17,1.9,14,-1.6
COc1ccc(-c2nc(N)n(C(=O)c3ccc(C)cc3)n2)cc1,-9,0.3,1.6,4,0,0.6,10,-0.7
COc1cc(NC(=O)CCn2c(=O)[nH]c3ccsc3c2=O)cc(OC)c1,3,6.8,-0.3,5,1,-12,3,0.3
COc1ccc(-c2ccnc(SCC(=O)N3CCN(c4ccccc4)CC3)n2)cc1,-1,6.3,1.8,0,-2,15,-8,-0.3
COc1ccccc1CNC(=O)c1ccc2c(=O)n(CC3CCCO3)c(=S)[nH]c2c1 (stereo not given),-3,5.9,1.3,6,6,-0.6,-1,0.1
O=c1c(Cl)c(N2CCNCC2)cnn1C12CC3CC(CC(C3)C1)C2,-5,1.2,11,-7,-1,-3.7,-13,0.6
O=C(Cn1nnc2ccccc21)Nc1ccc([N+](=O)[O-])cc1,2,1.3,4.6,15,3,1.1,-2,1.3
CC1CC(C)CN(S(=O)(=O)N2CCC(C(=O)NCCC3=CCCCC3)CC2)C1 (stereo not given),5,-0.7,2.1,-11,32,9.9,-1,0.1
Cc1cccc(OCC(=O)NCC(c2cccs2)N2CCOCC2)c1 (stereo not given),-4,-2.4,-0.7,-3,6,-0.2,0,-0.4

Later entries:
molecule,Beta cell apopt,RanGTP-Imp inh,UCH37 DUB inh,T cruzi repl,Calb FLC,LANA-H2A inh,B2AR ag,Bfl-1 A1 inh
CC(C)(C)n1nc2c(c1NC(=O)Cc1ccc(Cl)cc1)CS(=O)(=O)C2,-4,2.6,-0.6,-1,-3,-0.5,-5,-0.1
COc1ccc(C2=NOC3(CC(=O)N(c4ccc(C)cc4)C3=O)C2)c(OC)c1 (stereo not given),-6,·,0.2,2,7,1.8,8,-0.5
CCC(C)NS(=O)(=O)c1ccc(S(=O)(=O)N(CC(=O)Nc2ccccc2)CC2CCCO2)cc1 (stereo not given),1,3.8,0.7,13,8,-5.6,10,-0.6
O=C(O)c1ccc(Nc2ncc([N+](=O)[O-])cc2[N+](=O)[O-])cc1,·,-2.1,13,?,9,-2.2,5,-0.3
NC1=NC[C@H](CC2CCCCC2)N1CCc1cc(C(F)(F)F)cc(C(F)(F)F)c1,40,-4.7,0.3,30,92*,1.8,16,0.8
Cc1cc(C(=O)CN2C(=O)NC3(CCCCC3)C2=O)c(C)n1C,-7,-3.0,3.9,-6,-4,2.4,4,0.6
CC(=O)Nc1ccc(S(=O)(=O)NNC(=O)CCC(=O)NCc2ccccc2)cc1,-5,·,3.9,·,·,-4.4,-6,0.6
CCn1nc(C)cc1C(=O)N1CCCC(N2CCN(c3ccccc3OC)CC2)C1 (stereo not given),-4,-5.0,2.8,-15,7,1.1,-6,?
COc1cccc(C(CNC(=O)c2ccc(Cl)c(S(=O)(=O)N3CCCC3)c2)N(C)C)c1 (stereo not given),0,·,-0.1,·,·,-1.5,4,0.1
CCN(CC)S(=O)(=O)c1ccc(N2CCCC2)c(NC(=O)C2=NN(c3ccccc3)C(=O)CC2)c1,4,·,4.4,·,·,-1.9,47*,0.3
